# Assay outcomes as filed in PubChem.
# PAFAH1B3 inh: PAFAH1B3 enzyme inhibitors, primary screen, biochemical, fluorescence polarization, human | Platelet-activating factor acetylhydrolase IB subunit alpha1 (Homo sapiens), Q15102 | hit rate 0.28% among 340,000 | inhibition, % at 3.39 µM | recombinant PAFAH1B3, FP-rhodamine probe;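 active = inhibition above the screen-wide average of all tested compounds plus 3 SD, cut at about 25% in these data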;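 also: 0% = enzyme with DMSO only and 100% = wells lacking PAFAH1B3 protein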
# Target sequence (Q15102 whole entry, looked up): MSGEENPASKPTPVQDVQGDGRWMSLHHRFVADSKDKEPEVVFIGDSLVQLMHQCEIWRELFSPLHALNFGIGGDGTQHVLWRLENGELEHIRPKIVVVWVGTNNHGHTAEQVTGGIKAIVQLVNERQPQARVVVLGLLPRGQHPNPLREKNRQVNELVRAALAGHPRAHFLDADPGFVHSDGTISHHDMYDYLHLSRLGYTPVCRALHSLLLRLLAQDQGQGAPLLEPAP
# PME-1 primary: PME-1 inhibitors via competitive probe labeling, primary screen, biochemical, fluorescence polarization, FP-Rh probe, HTS. recombinant PME-1. inhibition, % at 5.9 µM. Protein phosphatase methylesterase 1 (Homo sapiens), Q9Y570. hit rate 0.53% among 320,000. AID 2130, 2009;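 active = inhibition above the campaign mean of all compounds plus 3 SD, cut at about 26% in these data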;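 also: competitive labeling of PME-1 active site by serine hydrolase directed probe; 0% = PME-1 with DMSO and 100% = wells lacking PME-1 enzyme; inhibitors block probe labeling so polarization falls and inhibition rises; many of its hits are not listed in these tables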
# LYPLA1 counter: LYPLA1 inhibitors, primary screen, counter-screen for PME1 inhibitor project, biochemical, fluorescence polarization, FP-Rh probe ABPP; Acyl-protein thioesterase 1 (Homo sapiens), O75608; recombinant LYPLA1; inhibition, % at 5.9 µM; hit rate 0.16% among 320,000; AID 2174, 2009;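 active = inhibition above the mean of all tested compounds plus 3 SD, set per campaign, cut at about 14% in these data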;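 also: inhibitors block serine hydrolase probe labeling of LYPLA1 so polarization falls; 0% = enzyme with DMSO and 100% = wells lacking LYPLA1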
# PAD4 inh: human PAD4 inhibitors, primary screen, biochemical, fluorescence polarization, 1536-well format; Protein-arginine deiminase type-4 (Homo sapiens), Q9UM07; recombinant PAD4, RCA probe fluorescence polarization; inhibition, % at 6.36 µM; hit rate 0.41% among 330,000; AID 485272, 2010;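 active = percent inhibition above a cutoff equal to the mean of all tested compounds plus 3 SD, cut at about 15% in these data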;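 also: 0% = PAD4 with RCA probe and DMSO and 100% = probe without PAD4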
# GSTO1 counter: inhibitors of recombinant GSTO1, primary screen, counter-screen for RBBP9 inhibitor project, biochemical, fluorescence polarization; AID 1974, 2009; inhibition, % at 5.96 µM; hit rate 1.1% among 300,000; Glutathione S-transferase omega-1 (Homo sapiens), P78417; activity-based probe fluorescence polarization;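 active = inhibition above the campaign mean inhibition plus 3 SD, cut at about 35% in these data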;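 also: 0% = GSTO1-1 with DMSO and 100% = wells lacking GSTO1-1 enzyme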
# Target sequence (P78417 whole entry, looked up): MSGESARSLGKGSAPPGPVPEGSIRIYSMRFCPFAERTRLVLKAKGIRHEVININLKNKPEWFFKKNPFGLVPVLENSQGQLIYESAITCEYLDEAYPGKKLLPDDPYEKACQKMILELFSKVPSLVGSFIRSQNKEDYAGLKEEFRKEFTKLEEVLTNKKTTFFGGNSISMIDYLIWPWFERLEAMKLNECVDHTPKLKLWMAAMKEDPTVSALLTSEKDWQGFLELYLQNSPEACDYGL
# PAFAH1B2 FP inh: PAFAH1B2 enzyme inhibitors, primary screen, biochemical, fluorescence polarization, human; recombinant PAFAH1B2, FP-rhodamine activity probe; inhibition, % at 3.39 µM; hit rate 1.2% among 340,000; AID 492953, 2010;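 active = inhibition above the mean of all tested compounds plus 3 SD, cut at about 24% in these data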;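 also: 0% = enzyme with DMSO and 100% = wells lacking PAFAH1B2; many of its hits are not listed in these tables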
# LYPLA2 inh: LYPLA2 inhibitors, primary screen, counter-screen for PME1 inhibitor project, biochemical, fluorescence polarization, FP-Rh probe ABPP. Acyl-protein thioesterase 2 (Homo sapiens), O95372. recombinant LYPLA2. inhibition, % at 5.9 µM. hit rate 0.38% among 320,000;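 active = inhibition above the screen-wide mean plus 3 SD, limit set per campaign, cut at about 26% in these data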;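 also: 0% = LYPLA2 with DMSO and 100% = wells lacking LYPLA2 enzyme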
# pPAFAH FP inh: pPAFAH enzyme inhibitors, primary screen, biochemical, fluorescence polarization, human; recombinant pPAFAH, FP-rhodamine probe fluorescence polarization; Platelet-activating factor acetylhydrolase (Homo sapiens), Q13093; inhibition, % at 3.39 µM; hit rate 1.5% among 330,000;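 active = inhibition above the mean inhibition across the screen plus 3 SD, cut at about 25% in these data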;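 also: inhibitors block binding of the rhodamine activity-based probe so polarization drops; 0% = enzyme with DMSO and 100% = wells lacking pPAFAH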
# Target sequence (Q13093 whole entry, looked up): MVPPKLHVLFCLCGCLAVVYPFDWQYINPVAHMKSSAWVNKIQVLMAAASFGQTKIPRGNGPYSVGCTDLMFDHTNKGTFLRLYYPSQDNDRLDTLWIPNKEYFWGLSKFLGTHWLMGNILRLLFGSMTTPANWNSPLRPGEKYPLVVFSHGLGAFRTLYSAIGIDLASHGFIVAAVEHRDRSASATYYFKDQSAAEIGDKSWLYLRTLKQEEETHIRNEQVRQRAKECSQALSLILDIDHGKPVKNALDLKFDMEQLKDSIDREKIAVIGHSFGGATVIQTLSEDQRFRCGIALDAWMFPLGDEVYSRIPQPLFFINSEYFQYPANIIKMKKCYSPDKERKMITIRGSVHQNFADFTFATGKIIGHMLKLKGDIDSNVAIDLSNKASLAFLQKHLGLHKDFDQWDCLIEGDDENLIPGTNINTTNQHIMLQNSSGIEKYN
# * marks the source's active call; other numbers are inactive results; . = not tested or not shown. A portion of the library. The share of hits here may be higher or lower than overall.
SMILES,PAFAH1B3 inh,PME-1 primary,LYPLA1 counter,PAD4 inh,GSTO1 counter,PAFAH1B2 FP inh,LYPLA2 inh,pPAFAH FP inh
O=C(CSc1nc2ccccc2c(=O)n1CCCN1CCOCC1)N1CCN(c2ccccc2)CC1,1,5,0,3,-2,-4,4,10
CCOc1ccc(Nc2nc(N)nc(CSC(=S)N3CCN(c4ccccc4)CC3)n2)cc1,3,10,-4,2,1,3,-2,0
COc1cccc(C2CC(c3ccccc3Cl)Nc3nc(N)nn32)c1 (configuration not stated),9,-4,-2,2,5,0,0,6
CCN1CCN(CCCNC(=O)CCC(=O)N2CCOc3ccccc32)CC1,0,6,-2,-3,9,1,-5,5
Cc1ccc(NC(=O)COc2ccccc2CNC(C)(C)CC(C)(C)C)cc1,1,-3,4,3,3,1,6,3
COC(=O)c1[nH]c2ccc(C)cc2c1NC(=O)CN1CCN(c2ccccc2)CC1,0,-1,-3,-1,1,3,-1,7
COc1cc(/C=C2\SC(=O)NC2=O)ccc1Oc1ccc([N+](=O)[O-])cn1,11,3,1,3,-23,-1,5,0
CC1=CC(C)(C)N2C(=O)C3(N=C(N)NC(Nc4ccccc4)=N3)c3cc(C)cc1c32 (configuration not stated),9,1,0,-1,2,4,2,-3
COC(=O)c1[nH]c2cc(OC)ccc2c1NC(=O)CN1CCN(c2cccc(C)c2)C(C)C1 (configuration not stated),5,10,42*,-4,21,9,11,12
O=C(CSc1ccc(-c2ccco2)nn1)Nc1ccccc1,9,1,2,-2,8,-1,6,6
Cc1ccc2c(c1)N(C(=O)CCC(=O)NCCCN1CCN(C)CC1)CC(C)O2 (configuration not stated),6,-7,0,2,1,2,7,4
CC1Cc2nc(SCC(=O)Nc3nc4ccccc4s3)n(C)c(=O)c2S1 (configuration not stated),-1,4,-4,1,6,-3,0,0
O=C(c1ccc([N+](=O)[O-])o1)N1CCN(c2nc3c(F)cc(F)cc3s2)CC1,0,2,6,-2,4,7,8,7
O=C(CCC(=O)N1CCOc2ccccc21)Nc1ccccc1Br,-3,-2,-2,8,9,0,-3,-1
O=C(CCC(=O)N1CCOc2ccccc21)Nc1cc(F)ccc1F,4,6,3,-1,-2,-3,1,6
COc1cc(NC(=O)CN2CCN(c3ccccc3O)CC2)c(C)cc1[N+](=O)[O-],3,2,-5,2,3,-1,-5,-1
COc1cc(OC)c(OC)cc1CCC(C)NCCC(c1ccccc1)c1ccccc1 (configuration not stated),8,-4,-5,1,0,1,-2,-2
Cc1ccn2c(=O)nc(SCC(=O)NC3CCCCC3)nc2c1,9,2,2,0,11,1,6,-3
Cn1c(N)c(C(=O)COC(=O)/C=C/c2ccc(Cl)cc2)c(=O)n(C)c1=O,-2,-8,-4,-6,.,1,2,-4
CC1(OC(=O)CCc2ccccc2)C(=O)C=C2C=C(c3ccsc3)OC=C2C1=O (configuration not stated),.,9,-1,-13,33,.,6,55*
CN(C)CC(=O)N1c2ccccc2CCc2ccc(NC(=O)c3ccc(N)cc3)cc21,11,1,1,3,3,6,-6,4
Fc1ccc(CSc2ccc3nnc(-c4ccccn4)n3n2)cc1,2,4,-3,3,-5,1,7,0
Cc1cc(N2CCN(c3ccc(F)cc3)CC2)nc2cc(O)ccc12,6,1,-3,3,4,0,-2,2
C=CCn1c(=O)c2c(nc3n2CCN3c2cccc(Cl)c2C)n(C)c1=O,-6,-4,2,-2,3,3,6,4
CCC1CCCCN1CCCNC(=O)CCC(=O)N1CC(C)Oc2ccccc21 (configuration not stated),-3,-4,2,-4,1,2,-4,-9
O=S(=O)(c1ccc(F)cc1)N1CCN(CC(O)COCc2cccs2)CC1 (configuration not stated),6,-6,-1,-3,1,18,3,1
Nc1nc2n(n1)C(c1cccs1)CC(c1ccc(Br)cc1)N2 (configuration not stated),2,-1,-3,-1,-5,3,15,2
Cc1cc(C)n2nc(SCC(=O)N3CCN(c4ccccc4)CC3)nc2n1,10,.,.,-4,.,2,.,-1
N#C/C(=C(/O)CSc1ncn[nH]1)c1nc2ccccc2[nH]1,17,3,-7,-4,1,-3,-4,18
CC12CCC(=O)N1C(C(=O)NCCN1C(=O)S/C(=C\c3ccc(F)cc3)C1=O)CS2 (configuration not stated),2,0,2,3,11,1,3,-1
CC(=O)N1CCc2cc(S(=O)(=O)N3CCOCC3)ccc21,1,0,2,0,-4,-1,2,-4
NC(=S)N/N=C/c1ccc(-c2ccc(Cl)c(Cl)c2)o1,0,23,-2,1,-20,9,1,15
Cc1ccc(Cn2c(=O)c3c(nc4n3CCN4Cc3ccco3)n(C)c2=O)cc1,1,2,-2,-1,0,3,1,4
CC(C)(C)NCc1cc(Br)ccc1OC1CCCC1,13,-3,0,0,7,-5,0,2
CCN(CCNC(=O)C1CCN(Cc2nc(-c3cccc(Cl)c3)oc2C)CC1)c1ccccc1,13,3,2,-4,-5,4,5,7
N=c1c(C(=O)NCCc2ccccc2)cc2c(=O)n3ccccc3nc2n1CCCN1CCOCC1,3,1,2,-6,-3,4,0,2
CCCCCn1c(N2CCN(Cc3ccccc3)CC2)nc2c1c(=O)[nH]c(=O)n2C,5,0,-1,0,-8,6,3,5
COc1ccc(NC(=O)CCCN2C(=O)CN(C)C2=O)c(OC)c1,10,3,1,1,.,3,6,4
Cc1cc(C)cc(N2CC(C)Cn3c2nc2c3c(=O)[nH]c(=O)n2C)c1 (configuration not stated),7,5,-2,-2,0,4,-2,1
CC(C)c1ccc(OCC(=O)NC2CC(C)(C)NC(C)(C)C2)c(Br)c1,6,6,-2,-5,-5,-3,5,8
COC(=O)CCC(=O)OC1(C)C(=O)C=C2C=C(C3CC3)N(Cc3ccccc3)C=C2C1=O (configuration not stated),-5,6,2,-8,21,5,7,11
Cc1cc(N2CCN(c3ccccc3F)CC2)nc2cc(O)ccc12,6,-9,-4,-3,17,-4,-6,6
CCNC(=S)N/N=C/c1ccc(OCC(=O)Nc2ccc(OC)cc2)c(OC)c1,6,-7,-1,-6,0,-6,-5,1
COc1cc(/C=N/NC(N)=S)ccc1OCC(=O)Nc1ccc(C)cc1,9,6,2,2,-3,-2,-3,1
O=C(Cc1ccc(S(=O)(=O)N2CCOCC2)s1)N1CCN(c2ccc(C(F)(F)F)cc2[N+](=O)[O-])CC1,0,-3,-1,-4,-10,-2,18,17
CCn1c(C)cc(=S)c2ccccc21,1,-6,2,-20,15,10,4,2
C/C=C(\C)C(=O)NCCN1C2=NC[C@@H](Cc3ccccc3)N2C[C@@H]1Cc1ccc(OC)cc1,5,-1,0,2,7,7,5,-3
COc1ccc(C2CC(c3ccc(Cl)cc3Cl)Nc3nc(N)nn32)cc1OC (configuration not stated),1,4,7,-1,6,5,-12,0

# 2 compounds drawn at random from those above, as already listed:
SMILES,PAFAH1B3 inh,PME-1 primary,LYPLA1 counter,PAD4 inh,GSTO1 counter,PAFAH1B2 FP inh,LYPLA2 inh,pPAFAH FP inh
CCNC(=S)N/N=C/c1ccc(OCC(=O)Nc2ccc(OC)cc2)c(OC)c1,6,-7,-1,-6,0,-6,-5,1
CCn1c(C)cc(=S)c2ccccc21,1,-6,2,-20,15,10,4,2

# The list goes on:
SMILES,PAFAH1B3 inh,PME-1 primary,LYPLA1 counter,PAD4 inh,GSTO1 counter,PAFAH1B2 FP inh,LYPLA2 inh,pPAFAH FP inh
Nc1c(C(=O)c2ccccc2O)cnn1-c1ccc(S(=O)(=O)N2CCOCC2)cc1[N+](=O)[O-],.,1,-2,-4,-12,.,1,1
N#Cc1c(SCC(=O)Nc2cccc(C(F)(F)F)c2)sc2c(O)cc(=O)[nH]c12,13,-23,-17,-11,-2,11,-14,40*
CCOCCn1c(=O)c2c(nc3n2CCCN3CCc2ccccc2)n(C)c1=O,-3,-6,-2,-1,4,3,11,4
Cc1ccc(OCC(=O)NC2CC(C)(C)NC(C)(C)C2)c(C)c1,1,2,3,-5,13,-2,6,8
CCOC(CNC(=O)c1ccc(N2CCc3ccccc32)c([N+](=O)[O-])c1)OCC,-1,6,-1,2,5,5,6,2
O=C(CN1CCN(S(=O)(=O)c2ccc(Br)cc2)CC1)N/N=C/c1cccs1,-2,7,3,-2,-2,24,7,5
CC1CCN(c2c(NCC3CCC(C(=O)NCCc4ccc(Cl)cc4)CC3)c(=O)c2=O)CC1 (configuration not stated),6,3,12,1,-1,12,12,7
Cc1ccc(/C=C/c2onc(C)c2S(=O)(=O)N2CCC(C(=O)NC(C)(C)C)CC2)cc1,-8,-5,-4,-3,-8,4,-1,7
O=C(NCCCN1CCOCC1)C1Cc2c(ccc3ccccc23)O1 (configuration not stated),1,2,0,-2,1,1,4,5
O=C(c1ccccc1F)N1CCN(c2ccccc2)CC1,2,5,7,-3,0,4,5,5
COc1ccc(C(=O)NCC(=O)N/N=C/c2cccc(OC(=O)c3ccco3)c2)cc1OC,7,-4,-1,2,6,2,1,2
COc1ccccc1OCCCOc1cccc(/C=C2\SC(=O)NC2=O)c1,-3,-13,-7,-1,-21,6,1,-7
Cc1cccc2[nH]c3c(N4CC=C(c5ccc(F)cc5)CC4)ncnc3c12,.,13,-7,2,-5,.,1,11
CCN(CC)CCCN=C1N[C@@H](c2cccc(F)c2)C(C(=O)OC)=C(C)N1Cc1ccccc1,0,.,.,1,.,7,.,-1
N=c1n(Cc2ccccc2Cl)c2ccccc2n1CC(O)c1ccco1 (configuration not stated),-7,3,-2,-6,7,4,2,5
COc1cc(/C=C2\SC(=O)NC2=O)ccc1OCc1ccc(Cl)nc1,5,0,-1,-1,0,4,2,6
COc1ccccc1NC(=O)CSc1sc2c(O)cc(=O)[nH]c2c1C#N,14,-16,-10,-8,18,11,8,39*
CCc1ccc(N=C2NC(=O)/C(=C/c3cc(OC)c(OC)c(OC)c3)S2)cc1,3,-39,-12,-2,-12,-1,-16,15
O=C(OCC(=O)N1CCN(c2ccccc2)CC1)c1cccc([N+](=O)[O-])c1,8,1,4,-4,8,5,11,0
Cc1ccn(C(=O)c2ccc(NC(=O)C3CC3)cc2)n1,3,0,0,0,7,-1,-3,0

# Grouped by structure, the compounds so far with a nitro group on carbon.
SMILES,PAFAH1B3 inh,PME-1 primary,LYPLA1 counter,PAD4 inh,GSTO1 counter,PAFAH1B2 FP inh,LYPLA2 inh,pPAFAH FP inh
COc1cc(/C=C2\SC(=O)NC2=O)ccc1Oc1ccc([N+](=O)[O-])cn1,11,3,1,3,-23,-1,5,0
O=C(c1ccc([N+](=O)[O-])o1)N1CCN(c2nc3c(F)cc(F)cc3s2)CC1,0,2,6,-2,4,7,8,7
COc1cc(NC(=O)CN2CCN(c3ccccc3O)CC2)c(C)cc1[N+](=O)[O-],3,2,-5,2,3,-1,-5,-1
O=C(Cc1ccc(S(=O)(=O)N2CCOCC2)s1)N1CCN(c2ccc(C(F)(F)F)cc2[N+](=O)[O-])CC1,0,-3,-1,-4,-10,-2,18,17
Nc1c(C(=O)c2ccccc2O)cnn1-c1ccc(S(=O)(=O)N2CCOCC2)cc1[N+](=O)[O-],.,1,-2,-4,-12,.,1,1
CCOC(CNC(=O)c1ccc(N2CCc3ccccc32)c([N+](=O)[O-])c1)OCC,-1,6,-1,2,5,5,6,2
O=C(OCC(=O)N1CCN(c2ccccc2)CC1)c1cccc([N+](=O)[O-])c1,8,1,4,-4,8,5,11,0
